Cruzain inh noDet – qHTS Assay for Promiscuous and Specific Inhibitors of Cruzain (without detergent) | Cruzipain (Trypanosoma cruzi), P25779 | purified cruzain, Z-FR-AMC fluorescence, no detergent | Potency, µM, inactives show max response, negative = inhibition, most hits filed as inhibitors | actives 2.3% (n = 200,000); active = well fitted curve in the direction sought with a large enough effect; inconclusive = small, poorly fitted or top-dose-only effect, or another doubt; inactive = no such curve, though single readings can be large; an effect the other way counts as inactive or inconclusive;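 also: plate controls were enzyme without inhibitor for no effect and buffer without enzyme for full effect; nearly all actives have a fitted effect of over 40% in size; top concentration of the series not given in the record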
Target sequence (P25779 123-467 limits assumed): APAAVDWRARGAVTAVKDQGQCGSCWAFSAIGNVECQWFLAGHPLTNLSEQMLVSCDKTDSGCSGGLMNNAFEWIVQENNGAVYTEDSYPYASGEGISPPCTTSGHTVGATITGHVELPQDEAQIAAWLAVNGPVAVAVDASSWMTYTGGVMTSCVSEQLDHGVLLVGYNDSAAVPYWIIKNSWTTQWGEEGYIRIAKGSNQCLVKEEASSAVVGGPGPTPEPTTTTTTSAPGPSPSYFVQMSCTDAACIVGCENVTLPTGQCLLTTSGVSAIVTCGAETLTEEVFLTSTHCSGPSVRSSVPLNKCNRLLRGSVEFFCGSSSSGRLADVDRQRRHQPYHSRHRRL
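Purified cruzain at 1.5 nM, pre-incubated 15 min with compound at room temperature in 100 mM sodium acetate pH 5.5, 5 mM DTT, 0.00005% Triton X-100. Reaction started with 2 uM Z-FR-AMC; AMC fluorescence increase over 60 s gives rate.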
2A StopGo – High Throughput Screening for Foot and Mouth Disease Virus Antivirals. human cells with a luciferase reporter of 2A StopGo recoding; control for the full effect not named in the record. actives 1.2% (n = 410,000). AID 1159524, 2015. Potency, µM (top dose mostly 57.9 µM), for inactives: top-dose signal change, negative = less light; active = well fitted falling curve with a large enough effect; inconclusive = small, poorly fitted or top-dose-only effect; inactive = no such curve, though single readings can be large or run the other way; tested in HEK293T cells; also: % is scaled to controls: 0 for no effect and ±100 for the full control effect; nearly all actives have a fitted effect of over 45% in size; luciferase light after 4 h
SARS PLpro yeast – qHTS of Yeast-based Assay for SARS-CoV PLP; S. cerevisiae expressing SARS-CoV PLpro, growth rescue; control for the full effect not named in the record; Potency, µM (top dose mostly 32.9 µM), for inactives: at the top dose activity, positive = growth rescue; actives 0.19% (n = 330,000); AID 485353, 2010; also: 0% is about no effect; nearly all actives have a fitted effect of over 55% in size; growth read by luminescence after 48 h
MARV entry inh – qHTS for inhibitors of binding or entry into cells for Marburg Virus. Marburg virus pseudotyped entry inhibition, cell reporter; control for the full effect not named in the record; about a third of the inactives were read at about 46 µM. Potency, µM (top dose mostly 37.8 µM), for the others: at the highest dose activity change, negative = inhibition, hits mostly inhibitors. actives 1.8% (n = 300,000); active = well fitted inhibition curve with a large enough effect; inconclusive = small, poorly fitted or top-dose-only effect, or effect the other way; inactive = flat fitted curve, though single readings scatter; tested in HEK293 cells; about a fifth of its hits are not listed in these tables; also: % is scaled to controls: 0 for no effect and ±100 for the full control effect; luciferase read-out
RE007 growth inh – qHTS Assay for Inhibitors of the HIV-1 protein Vpr. actives 0.21% (n = 360,000). Potency, µM (doses to about 92.2 µM), inactives show at the highest dose activity change, negative = less growth. S. pombe RE007 Vpr strain, BacTiter-Glo ATP luminescence, 24 h; control for the full effect not named in the record; active = well fitted falling curve with a large enough effect; inconclusive = small, poorly fitted or top-dose-only effect; inactive = no such curve, though single readings can be large or run the other way;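 also: % is scaled to controls: 0 for no effect and ±100 for the full control effect; nearly all actives have a fitted effect of over 50% in size; the assay follows cell death caused by Vpr and the record does not say whether a fall means rescue or toxicity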
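Fission yeast RE007 carrying one integrated HIV-1 vpr copy, seeded at OD 0.01 in PMG+AL medium with 23 nL pinned compound. Grown 24 h at 30 degrees; viability read by BacTiter-Glo luminescence after 5 min.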
Lassa entry inh – qHTS for Inhibitors of binding or entry into cells for Lassa Virus | actives 1.2% (n = 300,000) | AID 540256, 2011 | Lassa virus pseudotype entry inhibition, cell reporter; control for the full effect not named in the record | Potency, µM (doses to about 37.9 µM), without a hit: at the highest dose activity change, negative = inhibition, hits mostly inhibitors; active means well fitted inhibition curve with a large enough effect; inconclusive means small, poorly fitted or top-dose-only effect, or effect the other way; inactive means flat fitted curve, though single readings scatter; tested in HEK293 cells; also: % is scaled to controls: 0 for no effect and ±100 for the full control effect; nearly all actives have a fitted effect of over 50% in size; luciferase read-out
Cruzain inh Det – qHTS Assay for Promiscuous and Specific Inhibitors of Cruzain (with detergent) | actives 0.43% (n = 200,000) | Potency, µM, without a hit: max response, negative = inhibition, hits mostly inhibitors | AID 1478, 2009 | purified cruzain, Z-FR-AMC fluorescence, 0.01% Triton | Cruzipain (Trypanosoma cruzi), P25779; active = well fitted curve in the direction sought with a large enough effect; inconclusive = small, poorly fitted or top-dose-only effect, or another doubt; inactive = no such curve, though single readings can be large; an effect the other way counts as inactive or inconclusive;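 also: plate controls were neutral wells for no effect and buffer without enzyme for full effect; nearly all actives have a fitted effect of over 40% in size; top concentration of the series not given in the record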
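Read-out: AMC fluorescence (360 nm excitation, 450 nm emission), four reads over 2 min, first-to-third difference used. Conditions: cruzain 1.5 nM, Z-FR-AMC 2 uM, pH 5.5 acetate, 5 mM DTT, 0.01% Triton X-100.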
NS1 function inh – qHTS Assay for Inhibitors of Influenza NS1 Protein Function; S. cerevisiae slowed by influenza A NS1, growth recovery by OD600; Potency, µM (doses to about 46.1 µM), for the others: at the highest dose activity, positive = more growth; actives 0.4% (n = 270,000); also: actives are rising curves; nearly all actives have a fitted effect of over 50% in size
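Recovery from NS1-induced slow growth read by OD600 in budding yeast switched to galactose assay medium (pH 6.0, -URA) at 1:100 dilution. Compound 23 nl per well; the matching strain lacking NS1 serves as control.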
Active calls of the source: *; ? = inconclusive; nt = not tested or not shown; [ ] = another dose, or the depositor's remark. Unless noted, calls follow the shape of the dose curve; as a rule, active means well fitted rising curve with a large enough effect; inconclusive means small, poorly fitted or top-dose-only effect; inactive means no such curve, though single readings can be large or run the other way. Potency is read from the fitted curve at half-maximal effect. Random draw from the library; overall some 4.7% were active at least once.

SMILES	Cruzain inh noDet	2A StopGo	SARS PLpro yeast	MARV entry inh	RE007 growth inh	Lassa entry inh	Cruzain inh Det	NS1 function inh
Cn1c(=O)n(C)c2cc(S(=O)(=O)Nc3ccccc3)ccc21	nt	3%	-1%	?	1%	6%	nt	1%
O=[N+]([O-])/C(N=Nc1ccccc1)=N\Nc1ccccc1	nt	3%	0%	-26%[46.1 µM]	3%	nt	nt	-1%
Cc1ccc(-n2c(N)c(C#N)c(-c3ccc(Cl)cc3)c(C#N)c2=O)cc1	0%	-11%	-2%	-18%[46.1 µM]	14%	3%	0.7%	2%
COC(=O)[C@@]1(Cc2ccc(F)cc2)[C@H]2c3cc(C(=O)N(C)C)n(CCc4c[nH]c5ccc(OC)cc45)c3C[C@H]2CN1C(=O)c1ccccc1	?	-22%	nt	nt	5%	nt	-0.1%	nt
c1ccc(C(c2nnnn2C2CCCC2)N2CCN(c3ccccc3)CC2)cc1 (stereo unspecified)	17%	-4%	-20%	?	12%	18µM*	-7.4%	-9%
O=c1[nH]c(CSc2nnc(-c3ccco3)n2-c2ccccc2)nc2sc3c(c12)CCC3	4%	nt	-2%	nt	nt	nt	-5.3%	?
CCN(CC)C(=O)CCCC(=O)N(CC)CC	nt	0%	2%	4%[46.1 µM]	-4%	2%	nt	nt
S=C(Nc1ccc2c(c1)OCO2)N1CCN(Cc2ccco2)CC1	nt	16%	0%	nt	-14%	nt	nt	2%
O=C(CSc1nncn1-c1ccccc1)Nc1ccccc1F	nt	-3%	5%	3%[46.1 µM]	4%	11%	nt	3%
COc1ccc(OC(=O)CCN2C(=O)C3C4C=CC(C4)C3C2=O)cc1 (stereo unspecified)	nt	10%	1%	?	23%	0%	nt	-36%
COc1cc(OC)cc(C(=O)Nc2ccc3c(c2)COC3=O)c1	4%	nt	-1%	13%	1%	4%	2.2%	-4%
CCSc1ncnc2c1oc1ccccc12	-12%	0%	11%	1%	-19%	23%	0.0%	-35%
O=C(OCCN1CCCCC1)c1cccc(F)c1	nt	-1%	-1%	6%[46.1 µM]	7%	4%[46.1 µM]	nt	-2%
COc1ccc(NC(=O)C2CCCN2C(=O)NCc2ccccc2)cc1 (stereo unspecified)	nt	0%	3%	?	1%	0%	nt	nt
Cc1c(C(=O)NCC2CCCO2)oc2ccc(S(=O)(=O)N3CCCCC3)cc12 (stereo unspecified)	-2%	-26%	12%	11%	20%	-18%	-1.1%	-13%

Next part, overlapping the part above by 5 compounds.
SMILES	Cruzain inh noDet	2A StopGo	SARS PLpro yeast	MARV entry inh	RE007 growth inh	Lassa entry inh	Cruzain inh Det	NS1 function inh
COc1cc(OC)cc(C(=O)Nc2ccc3c(c2)COC3=O)c1	4%	nt	-1%	13%	1%	4%	2.2%	-4%
CCSc1ncnc2c1oc1ccccc12	-12%	0%	11%	1%	-19%	23%	0.0%	-35%
O=C(OCCN1CCCCC1)c1cccc(F)c1	nt	-1%	-1%	6%[46.1 µM]	7%	4%[46.1 µM]	nt	-2%
COc1ccc(NC(=O)C2CCCN2C(=O)NCc2ccccc2)cc1 (stereo unspecified)	nt	0%	3%	?	1%	0%	nt	nt
Cc1c(C(=O)NCC2CCCO2)oc2ccc(S(=O)(=O)N3CCCCC3)cc12 (stereo unspecified)	-2%	-26%	12%	11%	20%	-18%	-1.1%	-13%
COc1ccc(C2C(=O)N(C3CCCCC3)CC(=O)N2CC2COc3ccccc3O2)cc1 (stereo unspecified)	3%	0%	3%	-2%	0%	-24%	-3.3%	25%
Fc1cccc2sc(Nc3nc4c(F)cccc4s3)nc12	?	14%	-17%	?	?	4%	-0.8%	16%
NC(=O)C1CCN(Cc2nc3c(Br)cc(Br)cc3c(=O)[nH]2)CC1	nt	4%	-3%	3%	1%	29%	nt	nt
COC(=O)c1sc(NC(=O)c2ccco2)c(C#N)c1C	nt	-4%	-7%	nt	-16%	nt	nt	-67%
CC(C)CC(=O)NC1(C(F)(F)F)C(=O)Nc2c1c(=O)n(C)c(=O)n2C (stereo unspecified)	-1%	-27%	?	?	6%	?	7.9%	-1%
Cc1cc(/C=C2\C(=N)N3N=C(C(C)C)SC3=NC2=O)c(C)n1-c1ccccc1	nt	-3%	-4%	-7%[46.1 µM]	10%	21%[46.1 µM]	nt	nt
O=C(NCCCN1CCN(c2ccc(F)cc2)CC1)Nc1ccccc1Cl	2%	-9%	nt	?	nt	-5%[46.1 µM]	-1.8%	nt
COCCNC(=S)N1CCOCC1	-3%	-14%	-12%	4%	6%	13%	2.2%	-13%
CCc1ccc(C2N3CC4([N+](=O)[O-])CN2CC([N+](=O)[O-])(C3)C4(C)C)cc1 (stereo unspecified)	?	-9%	-3%	15%	-1%	-1%	0.9%	-1%
C=CCc1cc(OC)c2c(c1)OCO2	-2%	-12%	-6%	nt	1%	nt	10.0%	nt
C=CCOc1ccc(Oc2cc(C)nc(SC)n2)nn1	4%	-4%	-1%	15%	6%	?	-0.9%	4%
COc1ccc(-c2cc(-c3cccs3)nc3sc(C#N)c(N)c23)cc1	?	-23%	-23%	?	4%	1%	3.2%	16%
Cc1cc(C)nc(/N=C(\N)N2CCc3ccccc32)n1	nt	23%	1%	?	-18%	21%[46.1 µM]	nt	3%
Cc1oc(-c2ccc(Cl)cc2)nc1CS(=O)CC(=O)NCc1ccccc1 (stereo unspecified)	nt	8%	-5%	?	-2%	30%[46.1 µM]	nt	27%
Cc1nnc(-c2cnn(-c3ccccc3)c2N)n1Cc1cccc(C(F)(F)F)c1	15%	29%	-9%	20%	-7%	-8%	2.0%	15%

2 compounds from above, reduced to NS1 function inh, 2A StopGo and Cruzain inh Det.
SMILES | NS1 function inh | 2A StopGo | Cruzain inh Det
COC(=O)c1sc(NC(=O)c2ccco2)c(C#N)c1C | -67% | -4% | nt
COc1ccc(-c2cc(-c3cccs3)nc3sc(C#N)c(N)c23)cc1 | 16% | -23% | 3.2%

Continued:
SMILES	Cruzain inh noDet	2A StopGo	SARS PLpro yeast	MARV entry inh	RE007 growth inh	Lassa entry inh	Cruzain inh Det	NS1 function inh
O=C(CNc1cccc(S(=O)(=O)N2CCCC2)c1)Nc1ccc(C(F)(F)F)cc1	nt	-27%	10%	?	-1%	?	nt	nt
CCN1CCc2c(OCC(=O)N3CCC(C)CC3)cccc2C1=O	nt	7%	0%	?	11%	-9%[46.1 µM]	nt	nt
O=C(CCN1CCCC1=O)NC1CCCc2c1cnn2-c1ccc(F)cc1F (stereo unspecified)	nt	10%	1%	-26%	7%	1%	nt	-7%
Cc1cccn2c(=O)c(C=C(C#N)C#N)c(N3CCN(c4ccccc4)CC3)nc12	nt	-26%	0%	-15%	8%	-10%	nt	3%
CCc1cccc(C)c1NC(=O)C(NS(=O)(=O)c1ccc2c(c1)CCC(=O)N2)c1ccccc1 (stereo unspecified)	24%	0%	nt	0%[46.1 µM]	nt	-2%[46.1 µM]	-1.8%	nt
CCn1nc(C(=O)Nc2ccc(S(=O)(=O)Nc3ncccn3)cc2)c2ccccc2c1=O	nt	2%	-3%	0%[46.1 µM]	-6%	2%	nt	nt
CCOc1ccccc1C(=O)NCCCN1CCN(CCCNC(=O)c2ccccc2OCC)CC1	4%	6%	1%	22%	9%[3.69 µM]	?	2.4%	2%
Cc1cc(C)c(CN2C(=O)c3ccccc3S(=O)(=O)c3ccc(C(=O)OCC4CCCO4)cc32)c(C)c1 (stereo unspecified)	13µM*	-6%	nt	nt	nt	?	-2.0%	nt
CCOC(CNC(=O)CCc1c(C)nc2nc(C)nn2c1C)OCC	1%	-9%	-2%	0%	-4%	19%	5.0%	1%
CCc1ccc(OCCOCC(O)CNC2CCCC2)cc1 (stereo unspecified)	nt	-1%	3%	?	2%	?	nt	2%
COc1ccc(S(=O)(=O)N2CCOCC2)cc1NC(=O)COc1ccc2ccc(=O)oc2c1	nt	-13%	-3%	-2%	-5%	?	nt	nt
Cc1ccc(Cl)cc1N1CCN(C(=O)CCC(=O)O)CC1	-9%	-6%	0%	20%	4%	6%	4.2%	-1%
CCN(CC)C(=O)CS(=O)CC(=O)Nc1cc(OCCOC)c(Cl)cc1Cl (stereo unspecified)	nt	30%	0%	6%[46.1 µM]	2%	7%[46.1 µM]	nt	-2%
COCCCN1C(=O)c2[nH]nc(-c3cc(C)cc(C)c3O)c2C1c1ccc(O)c(OC)c1 (stereo unspecified)	?	?	0%	?	3%	?	-9.0%	?
O=C(NC(=S)Nc1ccc(S(=O)(=O)Nc2nccs2)cc1)c1cccnc1	nt	86%[activator]	3%	-1%[46.1 µM]	-23%	-8%	nt	2%
COCCn1c(SCC(=O)c2c(-c3ccccc3)n(C)c3ccccc23)nnc1-c1ccncc1	?	-9%	1%	?	8%	-5%	-4.6%	0%
COc1ccc(CCNC(=O)CSc2ccc(-c3ccco3)nn2)cc1	nt	-2%	0%	3%[46.1 µM]	15%	7%	nt	nt
NC(=O)c1ccc(NC(=O)COc2cccc3ccccc23)cc1	nt	-14%	0%	nt	-5%	nt	nt	6%
O=C(NCc1ccc(Cl)cc1)NCc1ccc(Cl)cc1	nt	-4%	2%	-8%[46.1 µM]	-19%	2%	nt	-1%
COc1ccc(NC(=O)Nc2cc(C)ccc2F)cc1	-4%	nt	2%	?	-5%	3%	-0.2%	-55%
O=C(O)/C=C/C(=O)Nc1ccc(OC(F)(F)Cl)cc1	nt	-7%	-1%	-3%[46.1 µM]	0%	11%[46.1 µM]	nt	-5%
N/C(=N\OC(=O)Nc1ccc(Cl)c(Cl)c1)c1ncc(C(F)(F)F)cc1Cl	-2%	-2%	-8%	-4%	4%	-1%	-2.8%	-31%
O=C(Cn1cc(C(=O)C2CC2)c2ccccc21)NCC1CCCO1 (stereo unspecified)	-7%	13%	6%	4%	-2%	18%	2.0%	4%

From PubChem BioAssay
